TRPML1 blocker: qHTS for Inhibitors of the Human Mucolipin Transient Receptor Potential 1 (TRPML1). TRPML1-inducible cells, Ca2+ dye fluorescence, FDSS; hits give low values; inhibition of EC80 agonist-evoked calcium signal. activity change, negative = inhibition, % (test concentration not listed). Mucolipin-1 (Homo sapiens), Q9GZU1. hit rate 0.02% among 390,000; in the data active means activity change below about -50%; inconclusive means about -30% to -50%; inactive means above about -30%;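 further: stimulus is agonist 54-4 at its EC80 concentration; on the % scale 0 is the no-effect control and ±100 the full control effect; compound concentration not given in the record; the text of the record puts the active cut at -80%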
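Calcium fluorescence in TRPML1-DL cells induced overnight with Tet: a 110 s read after compound pin addition, then a 110 s antagonist read after challenge with 54-4 at 4 uM final (EC80).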
gsp antagonist: qHTS for Antagonists of gsp, the Etiologic Mutation Responsible for Fibrous Dysplasia/McCune-Albright Syndrome: qHTS; Potency, µM (titrated, usually from 76.9 µM), for the others: at the top dose activity change, negative = inhibition, most hits filed as inhibitors; gsp-mutant cells, cAMP HTRF, 30 min; control for the full effect not named in the record; hit rate 0.4% among 340,000; active = falling curve of any shape with a large fitted effect; inconclusive = falling curve, mostly with a smaller effect; inactive = flat or rising curve; cell line not stated here;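 further: intracellular cAMP measured with PDE inhibitor Ro 20-1724 present during compound exposure; potency means the concentration at half of the fitted maximal effect; on the % scale 0 is the no-effect control and ±100 the full control effect; nearly all actives have a fitted effect of over 65% in size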
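HTRF cAMP measurement after 30 min RT detection following 30 min, 37C compound treatment alongside […] (added as 300 uM solution) in G418-selected cells seeded at 2000/well and grown 16–24 h.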
Sfp inh: qHTS Assay for Inhibitors of Bacillus subtilis Sfp phosphopantetheinyl transferase (PPTase) | Biochemical Sfp PPTase activity, qHTS | hit rate 3.5% among 310,000 | 4'-phosphopantetheinyl transferase ffp (Bacillus subtilis), Q9F4F7 | Potency, µM, for inactives: max response, negative = inhibition, most hits filed as inhibitors; active means well fitted inhibition curve with a large enough effect; inconclusive means small, poorly fitted or top-dose-only effect, or another doubt; inactive means no such curve, though single readings can be large or run the other way;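 further: the enzyme is Sfp with the accession as filed and its product quenches rhodamine fluorescence; potency means the concentration at half of the fitted maximal effect; 0% = enzyme reaction without inhibitor and -100% = no enzyme wells; top concentration of the series not given in the record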
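Compounds were incubated with enzyme (final 15 nM) for 15 min at room temperature before substrate addition started the reaction. Fluorescence at 525 nm excitation, 598 nm emission was recorded immediately and after 30 minutes.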
Menin MLL FP FL: qHTS Assay for Inhibitors Targeting the Menin-MLL Interaction in MLL Related Leukemias: Competition With Fluorescein Labeled MLL-derived Peptide. Fluorescence polarization, fluorescein-MLL peptide displacement from menin. FP activity change, % at 61.4 µM. 290,000 tested, under 10 active. AID 1766, 2009; inconclusive = falling polarisation curve, or a change in total fluorescence; inactive = total fluorescence flat and polarisation flat or rising; no compound was filed as active; the % refers to the polarisation; negative = inhibition;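 further: % of control where 0% means no effect; inhibitors lower the polarisation; unlabelled MLL peptide was the positive control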
gsp agonist: qHTS for Agonist of gsp, the Etiologic Mutation Responsible for Fibrous Dysplasia/McCune-Albright Syndrome: qHTS; AID 624287, 2012; gsp mutant cells, cAMP HTRF, 30 min; control for the full effect not named in the record; hit rate 0.13% among 340,000; Potency, µM (top dose mostly 76.9 µM), without a hit: top-dose activation (cAMP increase), actives largely listed as activators; active = well fitted activation curve with a large enough effect; inconclusive = small, poorly fitted or top-dose-only effect, or another doubt; inactive = no such curve, though single readings can be large or run the other way; cell line not stated here;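 further: phosphodiesterase inhibitor Ro 20-1724 added with compounds to block cAMP breakdown; potency means the concentration at half of the fitted maximal effect; nearly all actives have a fitted effect of over 60% in size; about a fifth of the inactives were tested at one dose only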
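Cells in DMEM/10% FBS with G418 were pretreated with compounds in DMSO plus […] (300 uM stock) for 30 min at 37C. cAMP was measured by HTRF (cAMP-d2 plus anti-cAMP antibody-K) after 30 min at room temperature.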
ClpP mod: qHTS Assay for Activators of ClpP; purified B. subtilis ClpP, FRET peptide cleavage, 20 min; Potency, µM (highest dose often 57.5 µM), inactives show at the highest dose activity change, negative = active; hit rate 1.9% among 340,000; AID 651965, 2013; active = well fitted falling curve with a large enough effect; inconclusive = small, poorly fitted or top-dose-only effect; inactive = no such curve, though single readings can be large or run the other way; further: potency means the concentration at half of the fitted maximal effect; the source files actives as falling curves though it sought activators and does not explain the sign; nearly all actives have a fitted effect of over 65% in size; many hits overshoot -100%
Target sequence (P80244 whole entry, looked up): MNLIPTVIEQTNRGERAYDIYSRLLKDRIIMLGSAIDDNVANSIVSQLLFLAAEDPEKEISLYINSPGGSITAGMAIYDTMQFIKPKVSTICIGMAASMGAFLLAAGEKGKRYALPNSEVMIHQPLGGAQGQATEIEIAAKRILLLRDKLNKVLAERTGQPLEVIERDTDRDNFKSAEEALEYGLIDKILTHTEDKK
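ClpP 10 microg/mL final, pH 8 Tris/KCl buffer with BSA, glycerol, Tween-20; compound pinned in; FRET-FV substrate; RT 20 min; Ex320/Em430; ΔFRET vs ADEP 5.8 microM, DMSO, no enzyme.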
TRPV1 potentiator: HTS Assay for Compounds that Act as Potentiators of the Vanilloid Receptor 1. potentiation, % at 8.33 µM. hit rate 0.02% among 320,000. TRPV1-expressing cells, Fluo-8 calcium influx, capsaicin EC20 potentiation; host cell line not named in the record; control for the full effect not named in the record. Transient receptor potential cation channel subfamily V member 1 (Homo sapiens), Q8NER1; active means potentiation above 80%; inconclusive means 30% to 80%; inactive means below 30%; further: 0% is about no effect
Target sequence (Q8NER1 whole entry, looked up): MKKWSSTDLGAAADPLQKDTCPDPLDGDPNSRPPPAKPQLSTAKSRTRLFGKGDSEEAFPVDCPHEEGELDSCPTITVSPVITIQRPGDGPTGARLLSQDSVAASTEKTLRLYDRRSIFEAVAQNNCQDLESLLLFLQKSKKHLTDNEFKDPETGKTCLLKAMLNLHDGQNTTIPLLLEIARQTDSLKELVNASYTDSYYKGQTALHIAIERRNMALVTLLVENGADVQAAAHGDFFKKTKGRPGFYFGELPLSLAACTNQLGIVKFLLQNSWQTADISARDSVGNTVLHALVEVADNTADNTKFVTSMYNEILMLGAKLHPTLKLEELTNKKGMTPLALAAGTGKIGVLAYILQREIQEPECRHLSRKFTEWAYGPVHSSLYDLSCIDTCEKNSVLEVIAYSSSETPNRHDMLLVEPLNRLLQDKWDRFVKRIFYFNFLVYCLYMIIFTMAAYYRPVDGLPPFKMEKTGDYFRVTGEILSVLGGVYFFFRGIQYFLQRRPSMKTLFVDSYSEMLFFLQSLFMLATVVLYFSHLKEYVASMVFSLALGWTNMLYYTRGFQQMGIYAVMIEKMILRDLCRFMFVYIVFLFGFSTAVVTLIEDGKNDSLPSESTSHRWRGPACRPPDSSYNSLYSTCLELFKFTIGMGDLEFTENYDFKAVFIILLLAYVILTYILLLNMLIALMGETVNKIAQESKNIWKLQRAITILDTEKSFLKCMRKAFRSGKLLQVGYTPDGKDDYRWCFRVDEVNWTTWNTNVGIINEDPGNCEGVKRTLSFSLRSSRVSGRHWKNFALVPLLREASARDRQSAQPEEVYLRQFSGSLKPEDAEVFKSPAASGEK
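Fluo-8 calcium influx in TRPV1-expressing cells, kinetic read (ex 480/em 520 nm). Compound added and read 3 min for agonist activity, followed by capsaicin at EC20 final and 2 min further read for enhancement.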
Active calls of the source: *; ? = inconclusive; . = no result given; & = joins results of further samples; [ ] = remark or other dose.

Second line of a record – Sfp inh	ClpP mod	Menin MLL FP FL	TRPV1 potentiator	TRPML1 blocker	gsp agonist	gsp antagonist
- Cc1ccc(Sc2nc3c(c(=O)[nH]c(=O)n3C)n2CCc2ccccc2)cc1
    -1%	4.6%	4.8	-4	10	24%	7%
- Cc1ccccc1OC1=NS(=O)(=O)c2ccccc21
    11%	.	-7.4	-11	11	3%[15.4 µM]	7%
- Cc1ccc(S(=O)(=O)N2CCN(C(=O)c3cc4c(s3)CCCC4)CC2)cc1
    .	-1.1%	.	2	-9	2%	-3%
- O=C(CSc1nnc(-c2ccccc2Cl)o1)N1CCCCC1
    7%	-0.2%	3.0	-23	-10	?	-3%
- CCN(c1ccc(OC)cc1)S(=O)(=O)N1CCCC(C(=O)NCc2ccccc2Br)C1 (centres undefined)
    9%	-1.7%	.	-3	22	27%	-35%
- O=C(O)CCSc1nnc(COc2ccc(Cl)cc2)n1-c1ccccc1
    22%	-0.4%	0.3	1	14	?	-8%
- CN1CCN(C2=CC3=CC(=C(C#N)C#N)CCC3CC2)CC1 (centres undefined)
    -5%	.	?	-5	-71*	-1%[15.4 µM]	?
- Nc1ccc(C(=O)N/N=C\c2cc(N=Nc3cccc4ccccc34)ccc2O)cc1
    -7%	-0.9%	2.6	-1	2	-15%	9%
- O=C(c1ccc(Cl)cc1)N1CCC(c2nc(-c3cccs3)no2)CC1
    -2%	-2.1%	-0.2	-13	24	-8%	?
- Cc1nc(N)sc1C(=O)N/N=C/c1cccnc1
    11%	.	-2.5	-18	5	?	7%
- CCCc1c(OCCCCc2nn[nH]n2)ccc(C(C)=O)c1O
    23%&19%&2%&16%&20%&8%&25%	0.5%	1.0&0.1&-3.4&-4.5&-1.2	6&-3	32	.	?
- Cc1ccc(S(=O)(=O)N2C[C@H]3[C@H]4C(=O)N(c5ccccc5)C(=O)[C@H]4C[C@H](OC(=O)NCc4ccco4)[C@@]3(O)C2)cc1
    .	-2.3%	.	.	14	-56%[inhibitor]	.
- COc1ccccc1CNC(=O)c1c(-c2ccccc2Cl)noc1C
    18%	-0.8%	-0.6	-6	-14	13%	-11%
- COC(=O)C1=C(C)N(c2ccc(Cl)cc2)/C(=C/c2ccc(O)cc2)C1=O
    4%	.	?	-2	5	10%[15.4 µM]	-21%
- O=C(O)c1ccc(-n2nnnc2Oc2cccc3cccnc23)cc1
    3%	-3.3%	-2.1	-1	27	1%	-7%
- CCOP(=O)(OCC)C(Nc1cccc([N+](=O)[O-])c1)c1ccc(N(C)C)cc1 (centres undefined)
    8%	-3.4%	-1.9	-8	18	0%	1%
- CCCN1CCN(C(=O)c2oc3ccccc3c2NC(=O)C2CC2)CC1
    4%	-0.3%	5.8	11	-8	?	4%
- Cc1cc(C)c(C#N)c(SCc2[nH]nc3c2C(c2ccccc2)C(C#N)=C(N)O3)n1 (centres undefined)
    5%	0.7%	-6.1	18	-6	3%	-25%
- COc1cccc(COC(=O)C2CCN(C(=O)c3ccccc3C)CC2)c1OC
    7%	-0.4%	.	7	-9	?	?
- COc1ccc(OCC(O)CN2C(=O)c3ccccc3C2=O)cc1 (centres undefined)
    8%	0.7%	1.4	-3	-3	11%[15.4 µM]	-7%
- CN(CC(=O)Nc1ccccc1Cl)C(=O)c1cccc(-n2cccc2)c1
    .	-1.1%	.	17	-4	-12%	11%
- Cc1cccc(OCCCC(=O)Nc2ccccc2C(F)(F)F)c1
    9%	0.0%	-6.2	14	2	24%	-11%
- COc1ccc(CCN(Cc2nc3ccccc3c(=O)[nH]2)C(=O)c2ccco2)cc1OC
    -10%	1.9%	-0.3	-5	-10	18%	-3%
- Cc1ccccc1NC(=O)Cc1nc(COC(=O)c2cccc(C)c2O)cs1
    7%	79%	.	-4	-5	-31%[inhibitor]	-20%
- CC1CCCCN1Cc1ccc(N(C)C)cc1 (centres undefined)
    9%	-3.8%	1.5	3	5	-91%[inhibitor]	1%
- CCOc1ccccc1CNC(=O)Cn1ccc2cc(S(=O)(=O)N3CCCC3)ccc21
    9%	.	5.1	10	0	?	-18%
- O=C(c1cc(C2CC2)nn1-c1ccccc1)N1CCN(S(=O)(=O)c2ccccc2F)CC1
    .	1.5%	.	.	3	-2%	.
- COc1ccc(CCNC(=O)CN2c3cccc4cccc(c34)S2(=O)=O)cc1OC
    -7%	.	0.7	-5	1	-3%[15.4 µM]	4%
- CSc1cccc(NC(=S)NN(C)C)c1
    17%	?	2.1	.	-8	8%[15.4 µM]	13%
- O=C(COC(=O)C1CC2C=CC1C2)Nc1c(Br)cc([N+](=O)[O-])cc1Br (centres undefined)
    .	-0.4%	.	.	3	-9%	-21%
- CC[C@@H](C)[C@H](NC(=O)Cc1c(C)c2c(cc(C)c3c(C)c(C)oc32)oc1=O)C(=O)O
    -6%	.	-7.3	-9	-20	?	-12%
- Cc1cc(C(=O)NCc2cc(C(=O)O)oc2C)c(C)o1
    -21%	-0.7%	1.7	13	-12	-2%	-3%
- O=S(=O)(Nc1cccc2ccccc12)N1CCCC1
    -1%	28µM*	-1.8	2	-7	-7%	0%
- Cc1ccc(NC(=O)CNCc2ccccc2)c(Br)c1
    9%	.	-3.2	-12	-8	1%[15.4 µM]	-13%
- CCN(CC)C(=O)COc1coc(CN2CCN(c3cccc(Cl)c3)CC2)cc1=O
    6%	-0.6%	.	-46	13	-21%	9%
- COc1ccc(N2CCN(Cc3csc(C)c3-c3ccc(C)cc3)CC2)cc1
    -21%	-1.6%	1.6	3	-13	13%[15.4 µM]	6%
- COC(=O)C1=C(C)N(c2ccc(F)cc2)C(=O)C1
    12%	0.7%	-6.6	1	-20	-16%	16%
- O=C(Cc1ccccc1)NCC(=O)OCC(=O)c1ccccc1Cl
    4%	1.4%	2.7	-10	-12	-3%[15.4 µM]	16%
- CC(=O)N/C(=C\c1ccccc1)C(=O)OCC(=O)c1c(N)n(CC(C)C)c(=O)n(C)c1=O
    .	0.8%	.	13	5	-21%	-2%
- CC(C)N(Cc1ccccc1)CC(O)COc1ccc(S(=O)(=O)N2CCOCC2)cc1Cl (centres undefined)
    -1%	-0.9%	-0.5	1	-28	27%[15.4 µM]	-24%
- CC(C)NC(=O)COc1ccccc1C#N
    9%	1.7%	-0.5	-1	3	-1%	8%
- O=C(NC1CCCC1)C(c1ccncc1)N(C(=O)Cn1nnc(-c2ccccc2F)n1)c1cccc(F)c1 (centres undefined)
    16%	.	-3.2	8	-10	-35%[inhibitor]	0%
- CCC(C)Nc1nc(-c2ccc3c(c2)NC(=O)CO3)cs1 (centres undefined)
    ?	1.5%	2.7	3	47	-6%	-6%
- CC(=O)c1ccc(Nc2c3c(c(C#N)c4nc5ccccc5n24)CCC3)cc1
    6%	.	26	-7	.	.	.
- CC12CCC(=O)N1C(C(=O)N1CCN(S(=O)(=O)c3cccc(C(F)(F)F)c3)CC1)CS2 (centres undefined)
    .	?	.	-20	5	22%	7%
- Fc1c(F)c(F)c(N=Cc2ccc3ncccc3c2)c(F)c1F
    -4%	1.3%	.	-15	10	-47%[inhibitor]	4%
- N#CC1=C(S)N(c2ccc(F)cc2)C(c2cccs2)NC1=O (centres undefined)
    56µM*	-1.1%	-1.7	-1	34	3%	1%
- O=S(=O)(Nc1ccc(Br)cn1)c1ccc2ccccc2c1
    14%	.	1.1	17	-11	3%[15.4 µM]	-1%
- Cc1cc(C(=O)NNC(=O)Cc2ccc(Cl)c(Cl)c2)c(C)o1
    .	-0.8%	.	-7	-11	-21%	9%
- Cc1noc(N)c1C(=O)Nc1ccc(F)c(Cl)c1
    1%	-1.3%	-0.4	6	-4	3%	12%
- CCOc1ccc(/C=C(\C#N)C(=O)NC2CC2)c(OCC)c1
    .	.	.	.	9	-15%	-1%
- O=C(N=Nc1c(O)n(C2OC(=O)c3ccccc32)c2ccccc12)c1ccc(O)cc1 (centres undefined)
    12%	0.6%	-6.3	1	6	-33%[inhibitor]	-7%
- Cc1cc(C(=O)NC(C)C)on1
    15%	-0.8%	2.3	-1	-3	-9%	18%
- Cc1ccc(-c2cc(=O)c3ccc(F)cc3[nH]2)cc1
    4%	-23%	-3.4	-25	23	.	5%
- COc1ccc(OC)c(NC(=O)CSc2nnc(C)n2Cc2ccccc2)c1
    9%	0.3%	-1.0	-2	-1	-11%	3%
- Cc1sc(N/N=C/c2cccs2)nc1-c1ccccc1
    -10%	-3.8%	-0.9	-5	-2	1%	-2%
- CCC(=O)N(CC)c1nc(-c2cc(OC)ccc2OC)cs1
    -30%	-0.4%	0.2	16	3	-10%	4%
- CCN(C(=O)CCNC(=O)Cn1cnc2ccccc2c1=O)c1cccc(Cl)c1
    8%	1.9%	-1.3	-3	-3&10	-1%[15.4 µM]	-2%
- Cc1cc(C)c2c(n1)nn1c(NCCCN3CCOCC3)cc(C)nc21
    .	?	.	.	1	2%	0%
- O=C(Nc1cccc(NC(=O)c2ccccc2)n1)c1ccccc1
    -6%	-0.3%	3.9	-4	-21	11%[15.4 µM]	-22%
- C[C@H]1COC(=O)[C@@H](Cc2ccc(F)cc2)CC/C=C/C[C@H](CC(=O)N(CCO)Cc2ccccc2)C(=O)N1
    .	-2.8%	.	.	19	.	-5%
- COc1cccc(CNC(=O)Cc2ccc(-n3c(=O)[nH]c4ccccc4c3=O)cc2)c1
    19%	4.2%	-1.2	9	-4	-2%	18%
- CCOc1ccc(CNC(=O)C(CC)n2nc(C)n3c(cc4occc43)c2=O)cc1OC (centres undefined)
    11%	-2.5%	4.5	25	0	2%	2%

Not a hit list; any-hit rate near 4.9%.
